Screens deposited in PubChem BioAssay by Johns Hopkins Ion Channel Center.
KCNQ2 enhance: potentiators of rat KCNQ2 potassium channel; 0.54% of 310,000 active; B-score at 10 µM; CHO-K1 KCNQ2, FluxOR thallium flux fluorescence; active compounds read high; AID 2239, 2010; Potassium voltage-gated channel subfamily KQT member 2 (Rattus norvegicus), O88943;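 active means fluorescence ratio B-score at least 3 SD of library B-scores, with initial fluorescence B-score within 3 SD, cut at about 5.3 in these data; same plate scores as AID 2156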;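 further: B-score of peak minus minimum over baseline fluorescence ratio after K+ and Tl+ stimulus; positive B-score means potentiation of KCNQ2 with more thallium influx and brighter signal; only the inactives scoring about 0 or higher are listed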
Target sequence (O88943 whole entry, looked up): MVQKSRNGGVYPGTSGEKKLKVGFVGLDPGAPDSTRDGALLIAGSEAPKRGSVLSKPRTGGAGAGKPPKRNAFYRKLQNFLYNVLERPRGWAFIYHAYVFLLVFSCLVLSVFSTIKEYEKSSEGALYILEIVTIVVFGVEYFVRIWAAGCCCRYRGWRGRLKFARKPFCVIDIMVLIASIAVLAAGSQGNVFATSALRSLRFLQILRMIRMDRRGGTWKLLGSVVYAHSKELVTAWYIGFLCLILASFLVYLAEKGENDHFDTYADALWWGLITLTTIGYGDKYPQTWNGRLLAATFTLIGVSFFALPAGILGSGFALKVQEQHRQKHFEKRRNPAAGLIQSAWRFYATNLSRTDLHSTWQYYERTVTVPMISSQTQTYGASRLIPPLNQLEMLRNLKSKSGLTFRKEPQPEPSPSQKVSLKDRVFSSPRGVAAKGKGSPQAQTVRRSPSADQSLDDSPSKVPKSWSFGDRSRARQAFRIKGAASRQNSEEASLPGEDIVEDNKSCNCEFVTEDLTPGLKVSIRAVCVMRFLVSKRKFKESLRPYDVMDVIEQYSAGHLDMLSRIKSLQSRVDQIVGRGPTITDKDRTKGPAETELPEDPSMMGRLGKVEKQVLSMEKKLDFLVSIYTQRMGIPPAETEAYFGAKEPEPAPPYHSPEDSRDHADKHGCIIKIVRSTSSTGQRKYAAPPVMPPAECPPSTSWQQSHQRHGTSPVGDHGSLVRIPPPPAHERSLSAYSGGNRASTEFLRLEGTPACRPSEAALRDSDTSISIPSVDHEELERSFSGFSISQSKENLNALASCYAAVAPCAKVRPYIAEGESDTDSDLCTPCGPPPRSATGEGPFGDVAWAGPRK
KCNQ2 enhance baseline: further read-out of KCNQ2 enhance, marked with its call; B-score; compound at 10 µM; measured here: initial fluorescence intensity artifact check;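 brightness before thallium and not channel activity; 0 = typical well and far values either way flag optical interference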
Active calls of the source: *; nt = no result given.

SMILES | KCNQ2 enhance | KCNQ2 enhance baseline
CC1(C)NC(=O)N(CC(=O)N2CCCC(C(F)(F)F)C2)C1=O (stereo not given) | 1.4 | -0.35
CC[C@@]1(O)C(=O)OCc2c1cc1n(c2=O)Cc2cc3c(N)cccc3nc2-1 | 3.1 | 0.01
CN(c1ccc(C(=O)Nc2ccc3c(c2)OCCO3)cc1)S(C)(=O)=O | 0.06 | -0.85
CSc1ccccc1OCc1cc(C(=O)N(C)Cc2ccc(C)o2)no1 | 1.1 | -1.3
O=C(CCNS(=O)(=O)c1ccc2c(c1)CCC(=O)N2)NCc1ccc2c(c1)OCO2 | 1.3 | 0.43
O=C(O)C1CCCCC1C(=O)NCCCc1ccccc1 (stereo not given) | 0.16 | -0.86
Cc1cc(C)c(NC(=O)COC(=O)CSc2ccc(Br)cc2C)c(C)c1 | 1.4 | -0.43
Cc1cc(SCC(=O)c2ccc(O)c(O)c2)nc2ccccc12 | 2.5 | -1.1
NC(=O)CCn1ccc2ccccc21 | 1.2 | 0.01
CC(C)(C)C(=O)NC(=S)Nc1ccc(F)cc1 | 0.27 | 1.8
Cc1cc(N2C(=O)C(O)=C(C(=O)c3cc4ccccc4o3)C2c2ccc(OC(C)C)cc2)no1 (stereo not given) | 0.08 | 0.07
CCN1C(=O)c2ccccc2S(=O)(=O)c2ccc(C(=O)NC(C)C)cc21 | 0.46 | -0.84

In another format: results already given
Second line of a record: KCNQ2 enhance, KCNQ2 enhance baseline
- O=C(O)C1CCCCC1C(=O)NCCCc1ccccc1 (stereo not given)
    0.16, -0.86
- Cc1cc(C)c(NC(=O)COC(=O)CSc2ccc(Br)cc2C)c(C)c1
    1.4, -0.43
- Cc1cc(SCC(=O)c2ccc(O)c(O)c2)nc2ccccc12
    2.5, -1.1
- NC(=O)CCn1ccc2ccccc21
    1.2, 0.01

Continued.
SMILES | KCNQ2 enhance | KCNQ2 enhance baseline
N#CC1(NC(=O)COC(=O)c2ccccc2SCC(=O)N2CCCC2)CCCCC1 | 0.66 | -0.69
CC(=O)c1cccc(NC(=O)c2ccc3c(c2)CCCC3)c1 | 0.76 | -0.82
CCC(=O)Nc1ccc(C(=O)NNC(=O)c2cc([N+](=O)[O-])cc([N+](=O)[O-])c2)cc1 | 0.13 | 1.8
COc1ccc(-n2nnc3c(=O)n(CC(=O)N4CCCc5ccccc54)cnc32)cc1 | 1.6 | 0.28
O=c1[nH]c(CSc2nnnn2-c2ccc(Cl)cc2)nc2ccccc12 | 0.27 | 2.4
CCCN1Cc2cccc(C(=O)N3CCN(c4ccccc4)CC3)c2C1=O | 0.12 | 0.87
COCCn1c(NCc2ccco2)nc2c1c(=O)[nH]c(=O)n2C | 0.02 | 0.95
CCN(CC(=O)NCCc1ccc(S(N)(=O)=O)cc1)Cc1nc2cc(OC)c(OC)cc2c(=O)[nH]1 | 0.46 | -1.6
C/C(CC(=O)NCc1ccco1)=N\NC(=O)Cc1cccc2ccccc12 | 1.1 | -0.81
CC(C)C(C(=O)NCc1ccco1)N(Cc1ccco1)C(=O)CNS(=O)(=O)c1ccc(F)cc1 (stereo not given) | 0.12 | -0.35
CCOc1ccc(N=CNc2ccc(OCC)cc2)cc1 | 0.1 | -1.5
COC(=O)C(C)N1C(=O)S/C(=C/c2cc(C)n(-c3ccccn3)c2C)C1=O (stereo not given) | 1 | -0.66
CCCCCc1ccc(-c2cn(Cc3ccc4ccccc4c3)nn2)cc1 | 0.08 | -0.06
C[C@@H]1CCC[C@]2(O[C@H](CCO)C[C@H](O)[C@H]2O)O1 | 1.4 | 1.2
O=C(COC(=O)CNC(=O)c1sc2ccccc2c1Cl)Nc1cc(Cl)cc(Cl)c1 | 0.8 | -0.01
COc1ccc(C)cc1Nc1n[n+](-c2ccccc2)c(-c2ccc(C(=O)O)cc2)s1 | 0.64 | -1.9
COc1ccc(COC(=O)C2CCN(S(=O)(=O)c3cccs3)CC2)cc1 | 0.06 | 3
N#Cc1ccc(CNc2cnccn2)cc1 | 0.6 | 0.03
COCCNC(=O)CS(=O)Cc1nc(-c2ccc(Cl)cc2)oc1C (stereo not given) | 1.6 | 1
COc1ccc(C2C(C#N)=C(N)OC3=C2C(=O)CC(C)(C)C3)cc1Cn1cc([N+](=O)[O-])cn1 (stereo not given) | 0.43 | -2.3
CCn1ncc(/C=N/NC(=O)c2cc(Cl)ccc2OC)c1C | 0.23 | -0.91
Cc1ccc(-n2c(C)cc(C(=O)COC(=O)c3ccc[nH]c3=O)c2C)cc1C | 0.06 | 0.9
Cc1sc2nc(SCC(=O)Nc3ccc(S(=O)(=O)NCCCC(=O)O)cc3)[nH]c(=O)c2c1C | 0.98 | 0.27
O=C(NCc1ccco1)C(Cc1ccccc1)NS(=O)(=O)c1cccc2nsnc12 (stereo not given) | 4.1 | -1.1
Cc1cc(NC(=O)CCCN2C(=O)/C(=C\c3cccs3)SC2=S)no1 | 1.4 | -2
Cc1cc(C(=O)N2CCCC(C(=O)c3cccc4ccccc34)C2)nc(C)n1 (stereo not given) | 1.9 | -1.3
CCc1nn2c(N)c(/C=C3\C=Nc4ccccc43)c(=O)nc2s1 | 0.35 | nt
COc1ccc(CNc2nc(C)c([N+](=O)[O-])c(C)c2C#N)cc1 | 0.4 | 1.4
O=c1[nH]c2cccnc2n1-c1cccc([N+](=O)[O-])c1 | 1.2 | 0.18
O=C(NC1CCCC1)c1ccc(Cn2c(=O)[nH]c3ccsc3c2=O)cc1 | 0.87 | 0.13
Cc1nc2ccccc2nc(C)c1=NOCc1ccc(Cl)cc1Cl | 0.69 | 0.06
COc1cccc(C(=O)CN(C(=O)c2ccc(Cl)cc2Cl)N2C(=O)c3ccccc3C2=O)c1 | 0.67 | -0.42
CC(=O)c1ccccc1NC(=O)COC(=O)/C=C/c1cccs1 | 1.2 | -1.4
Cn1ncc(C#N)c1NC(=O)c1cc(-c2ccccc2Cl)on1 | 2.2 | -0.14
O=C(O)c1cnn2c1NC(c1cccs1)CC2C(F)(F)F (stereo not given) | 0.83 | 0.03
COc1ccc(CNC(=O)C(C)c2ccc([N+](=O)[O-])cc2)cc1 (stereo not given) | 0.7 | -2.3
COC(=O)c1ccc(C)c(NC(=O)CCc2cc(OC)c(OC)c(OC)c2)c1 | 0.45 | 0.03
CC(C)N1C(=O)CCC1C(=O)NCc1cccs1 (stereo not given) | 0.58 | -0.72
O=C(O)c1cccc(N2C(=O)c3ccc(Oc4ccc(Cl)cc4)cc3C2=O)c1 | 1.3 | 0.52
COc1cc(OC)c(NC(=O)CCNS(=O)(=O)c2ccc3c(c2)oc(=O)n3C)cc1Cl | 0.55 | 0.06
COc1ccc(C(=O)N/N=C(\C)CC(=O)Nc2ccc3c(c2)OCO3)cc1 | 0.63 | 1.4
C=CCOc1ccc(/C=C2\SC(N)=NC2=O)cc1OC | 1.2 | 0.32
Cc1cc(/C=C2/NC(=O)NC2=O)c(C)n1-c1cccnc1 | 2.1 | -0.1
CC(C)Cn1nc(NC(=O)C2CCCO2)c2cc3ccccc3nc21 (stereo not given) | 1.6 | -0.04
O=S(=O)(NCc1csc(-c2cccnc2)n1)c1ccc(F)cc1 | 0.43 | 0.2
Cc1ccccc1N1C(=O)c2ccccc2C1Nc1cccnc1 (stereo not given) | 2.2 | 0.34
COc1cc(C=O)c(Br)cc1OCC(=O)NCc1ccccc1 | 1.7 | 1.4
COc1cc(/C=N/N=C2/C(=O)Nc3ccccc32)ccc1O | 0.56 | -1.5

Retrieved by structure from the entries so far, two records:
SMILES | KCNQ2 enhance | KCNQ2 enhance baseline
Cc1cc(/C=C2/NC(=O)NC2=O)c(C)n1-c1cccnc1 | 2.1 | -0.1
COc1cc(OC)c(NC(=O)CCNS(=O)(=O)c2ccc3c(c2)oc(=O)n3C)cc1Cl | 0.55 | 0.06

(cont.)
SMILES | KCNQ2 enhance | KCNQ2 enhance baseline
Cc1ccccc1OC(C)C(=O)Nc1cccnc1 (stereo not given) | 0.07 | -0.35
CO/N=C/c1cn(-c2ccc(Cl)cc2)nn1 | 0.02 | -0.94
CC(C)OC(=O)CC12CN(C)CC(CC(=O)OC(C)C)(CN(C)C1)C2=O | 0.91 | 2.3
CCOC(=O)c1csc(-c2sccc2Br)n1 | 0.55 | 1.9
COc1ccc(-c2nn(CC(=O)N3CCCCC3)c(=O)c3ccccc23)cc1 | 3.4 | -1.8
O=C(NNC(=O)c1ccc(NC(=O)c2ccccc2)cc1)c1ccc(F)cc1 | 1.7 | 0.01
CC(=O)Nc1ccc(-c2nn[nH]n2)cc1Cl | 0.08 | 1.6
Cc1ccc(NC(=S)N/N=C/c2c(Cl)cccc2Cl)c(C)c1 | 2.1 | 3.2
CN(C)c1ccc(C=C2C(=O)OC(C)(C(C)(C)C)OC2=O)cc1 (stereo not given) | 0.44 | -0.12
COc1cccc(CNC(=O)c2ccc(S(=O)(=O)N3CCCC3)cc2)c1 | 1.2 | -0.59
CCN1C(=O)N[C@@H](c2cccc(F)c2)C(C(C)=O)=C1C | 1.3 | -0.04
O=C1CCN(CCCc2ccccc2)CCN1[C@H](CO)Cc1ccccc1 | 0.4 | 1.5
CC1CC2(CC(C)(C(=O)CSc3n[nH]c(-c4ccccc4Cl)n3)OC2=O)C(=O)O1 (stereo not given) | 0.12 | -0.5
O=C(C1CCCO1)N1CCc2ccccc21 (stereo not given) | 1.3 | -2.4
COc1cc(CN2CCN(CC3CC3)CC2CCO)cc(OC)c1 (stereo not given) | 0.44 | 2.2
COc1cc(S(=O)(=O)Nc2c(C)nn(C)c2C)ccc1NC(C)=O | 0.58 | 2.1
O=C(Nc1ccc(F)cc1)Nc1nnc(Cc2ccccc2)s1 | 2.9 | 0.03
COc1cccc(-c2nnc3sc(C4CCCCC4)nn23)c1 | 0.07 | -1.8
O=C(CNC1CCN(Cc2ccccc2)CC1)Nc1ccc(S(=O)(=O)N2CCCCC2)cc1 | 0.92 | 2.4
Cc1ccc(S(=O)(=O)n2[nH]c(=O)c(CCO)c2C)cc1 | 0.67 | 1.4
CN1CCN(CCC(=O)Nc2ccc(F)c(F)c2)CC1 | 1.5 | -0.96
CCOC(=O)c1[nH]c(C)c(C(=O)Nc2ccccc2F)c1C | 0.8 | -1.2
O=C(NCc1ccco1)C(=O)c1c[nH]c2ccccc12 | 1.6 | 0
O=C(COc1ccccc1)N1CCN(S(=O)(=O)c2cccc([N+](=O)[O-])c2)CC1 | 0.66 | 0
COc1ccc(-c2cc(=O)oc3cc(OC(C)C(=O)NC(Cc4c[nH]c5ccc(O)cc45)C(=O)O)ccc23)cc1 (stereo not given) | 0.26 | -0.97
O=C(NCc1ccco1)c1nc(-c2ccccc2)n(-c2ccccc2)n1 | 0.35 | 0.21
COc1ccc(CC(=O)Nc2cccc(C(=O)O)c2C)cc1 | 0.78 | -0.55
COc1ccc(CCNC(=O)c2cccnc2SC)cc1 | 0.48 | -3.2
O=C(NC1CCCC1)C(c1ccccn1)N(C(=O)c1csnn1)C1CCCC1 (stereo not given) | 0.26 | -0.92
O=C(NC1CCCC1)c1cc(S(=O)(=O)N2CCOCC2)c(Cl)cc1Cl | 0.84 | 0
Cc1ccc(S(=O)(=O)N(C)c2c(C)ccc(S(=O)(=O)NC(C)(C)C)c2C)cc1 | 0.11 | -0.22
c1ccc(-c2nc3ccccc3nc2-c2ccccn2)nc1 | 0.02 | -0.02
Nc1ccccc1S(=O)(=O)c1ccccc1N | 0.35 | 1
COc1cccc(OC)c1C(=O)OCC(=O)NC(=O)NCc1ccccc1 | 0.62 | -2
O=C1c2ccccc2C(=O)N1Cc1nc2ccccc2c(=O)n1Cc1ccco1 | 0.02 | -1.2
O=C(COC(=O)[C@@H]1CC(O)CN1S(=O)(=O)c1ccc2c(c1)OCCO2)NCc1ccc(F)cc1 (stereo not given in full) | 0.04 | 1.3

Entries from the list above with bromine, in the order listed:
SMILES | KCNQ2 enhance | KCNQ2 enhance baseline
Cc1cc(C)c(NC(=O)COC(=O)CSc2ccc(Br)cc2C)c(C)c1 | 1.4 | -0.43
COc1cc(C=O)c(Br)cc1OCC(=O)NCc1ccccc1 | 1.7 | 1.4
CCOC(=O)c1csc(-c2sccc2Br)n1 | 0.55 | 1.9

(list continues)
SMILES | KCNQ2 enhance | KCNQ2 enhance baseline
Cc1cccc(NC(=O)NC2CCCCCCC2)c1C | 0.03 | 1.7
COc1ccc(N2CCN(C(=O)CSc3nc4ccccc4c(=O)[nH]3)CC2)cc1 | 2.2 | 0.36
Cc1ccc(NS(=O)(=O)c2ccc(C(=O)N3CCC3)cc2)cc1 | 0.67 | 0.71
O=C(NCC(=O)N1CCOCC1)c1ccc(Cl)cc1 | 1.9 | -0.62
Cc1cc(Cl)c2ccc3ccccc3c2n1 | 1.1 | 0.62
CC1(C)N=C(N)NC(Nc2ccccc2)=N1 | 1.1 | 0.2
S=c1nc(C2COc3ccccc3O2)[nH][nH]1 (stereo not given) | 0.65 | -2.3
CCNc1nc2c(c(=O)[nH]c(=O)n2C)n1CC(C)C | 1.6 | 0.31
COc1ccc(CCNC(=O)c2ccccc2C(=O)NCCc2ccc(OC)cc2)cc1 | 0.06 | 0.23
O=C(c1cc2ncc(Br)cn2n1)N1CCOCC1 | 1.2 | 0.33
Cc1ccc(S(=O)(=O)CCc2nnc(NC(=O)CCl)s2)cc1C | 0.26 | -0.27
O=S(=O)(c1ccccc1)c1nc(NCc2ccccc2)sc1Cl | 0.35 | -0.05
O=C(COc1coc(CN2CCc3ccccc3C2)cc1=O)Nc1ccc(F)cc1 | 0.48 | -0.06
CCSc1nc(=S)cc(C)[nH]1 | 13* | -0.04*
O=c1[nH]c2ccccc2n1C1=CCCC1 | 1.8 | -1.3
O=C(CNC(=O)c1ccc(Br)cc1)c1ccccc1 | 1.1 | 0.07

Structural class, the entries above containing a CF3 group (2)
SMILES | KCNQ2 enhance | KCNQ2 enhance baseline
CC1(C)NC(=O)N(CC(=O)N2CCCC(C(F)(F)F)C2)C1=O (stereo not given) | 1.4 | -0.35
O=C(O)c1cnn2c1NC(c1cccs1)CC2C(F)(F)F (stereo not given) | 0.83 | 0.03

Some of the compounds tested, so the mix of outcomes need not match the whole.
